NS1 function inh = influenza NS1 inhibition. S. cerevisiae slowed by influenza A NS1, growth recovery by OD600. AID 2326. 270,000 compounds, 0.4% hits. Potency, µM (highest dose often 46.1 µM), inactives show at the highest dose activity, positive = more growth; active means well fitted rising curve with a large enough effect; inconclusive means small, poorly fitted or top-dose-only effect; inactive means no such curve, though single readings can be large or run the other way; note: nearly all actives have a fitted effect of over 50% in size
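A cell-based growth assay was used: compounds that relieve NS1-induced slow growth of budding yeast raise OD600. Assay medium was yeast nitrogen base with ammonium sulphate and -URA supplement, pH 6.0, with 2% galactose.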
RE007 growth inh = less growth of the S. pombe RE007 Vpr strain | S. pombe RE007 Vpr strain, BacTiter-Glo ATP luminescence, 24 h; control for the full effect not named in the record | Potency, µM (titrated, usually from 92.2 µM), for inactives: at the highest dose activity change, negative = less growth | 360,000 compounds, 0.21% hits | AID 651644; active = well fitted falling curve with a large enough effect; inconclusive = small, poorly fitted or top-dose-only effect; inactive = no such curve, though single readings can be large or run the other way;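 note: % is set by controls: 0 for no effect and ±100 for the full control effect; nearly all actives have a fitted effect of over 50% in size; the assay follows cell death caused by Vpr and the record does not say whether a fall means rescue or toxicity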
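Fission yeast RE007 carrying one integrated HIV-1 vpr copy, seeded at OD 0.01 in PMG+AL medium with 23 nL pinned compound. Grown 24 h at 30 degrees; viability read by BacTiter-Glo luminescence after 5 min.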
2A StopGo = lowers the luciferase signal of an FMDV 2A StopGo reporter. human cells with a luciferase reporter of 2A StopGo recoding; control for the full effect not named in the record. Potency, µM (doses to about 57.9 µM), without a hit: at the top dose signal change, negative = less light. 410,000 compounds, 1.2% hits. AID 1159524; active = well fitted falling curve with a large enough effect; inconclusive = small, poorly fitted or top-dose-only effect; inactive = no such curve, though single readings can be large or run the other way; tested in HEK293T cells; note: % is set by controls: 0 for no effect and ±100 for the full control effect; nearly all actives have a fitted effect of over 45% in size; luciferase light after 4 h
SARS PLP yeast = inhibitors of SARS-CoV papain-like protease in yeast; 330,000 compounds, 0.19% hits; Potency, µM (top dose mostly 32.9 µM), for inactives: at the highest dose activity, positive = growth rescue; S. cerevisiae expressing SARS-CoV PLpro, growth rescue; control for the full effect not named in the record; AID 485353; active means well fitted rising curve with a large enough effect; inconclusive means small, poorly fitted or top-dose-only effect; inactive means no such curve, though single readings can be large or run the other way; note: 0% is about no effect; nearly all actives have a fitted effect of over 55% in size; growth read by luminescence after 48 h
Cruzain Triton = inhibitors of Trypanosoma cruzi cruzain with detergent | 200,000 compounds, 0.43% hits | Potency, µM, for the others: max response, negative = inhibition, usual class: inhibitors | purified cruzain, Z-FR-AMC fluorescence, 0.01% Triton;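 note: plate controls were neutral wells for no effect and buffer without enzyme for full effect; nearly all actives have a fitted effect of over 40% in size; top concentration of the series not given in the record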
Target sequence (P25779 123-467 limits assumed): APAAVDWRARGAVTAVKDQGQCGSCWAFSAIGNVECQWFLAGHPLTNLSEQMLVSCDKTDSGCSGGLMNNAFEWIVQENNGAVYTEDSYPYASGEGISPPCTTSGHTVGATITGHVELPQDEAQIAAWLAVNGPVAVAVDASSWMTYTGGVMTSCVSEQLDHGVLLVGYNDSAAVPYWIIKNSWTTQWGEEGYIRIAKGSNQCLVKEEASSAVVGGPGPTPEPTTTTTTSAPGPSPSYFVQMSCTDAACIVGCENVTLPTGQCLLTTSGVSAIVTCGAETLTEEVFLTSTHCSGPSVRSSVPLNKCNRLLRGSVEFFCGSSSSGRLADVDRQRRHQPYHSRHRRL
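15 min RT preincubation of 1.5 nM cruzain with compound, then 2 uM Z-FR-AMC added; kinetic AMC fluorescence, 60 s delta. Triton X-100 0.01%, pH 5.5.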
Cruzain noTriton = inhibitors of Trypanosoma cruzi cruzain without detergent. Potency, µM, inactives show max response, negative = inhibition, actives largely listed as inhibitors. AID 1476. 200,000 compounds, 2.3% hits. purified cruzain, Z-FR-AMC fluorescence, no detergent;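 note: plate controls were enzyme without inhibitor for no effect and buffer without enzyme for full effect; nearly all actives have a fitted effect of over 40% in size; top concentration of the series not given in the record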
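Detergent-free condition (0.00005% Triton X-100) in acetate buffer pH 5.5 with DTT. 1.5 nM enzyme and compound were pre-mixed 15 min, then 2 uM Z-FR-AMC substrate added; reaction progress from fluorescence change between first and third reads (60 s).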
Lassa entry inh = Lassa virus entry inhibition | Lassa virus pseudotype entry inhibition, cell reporter; control for the full effect not named in the record | Potency, µM (highest dose often 37.9 µM), for the others: at the top dose activity change, negative = inhibition, usual class: inhibitors | 300,000 compounds, 1.2% hits | AID 540256; active means well fitted inhibition curve with a large enough effect; inconclusive means small, poorly fitted or top-dose-only effect, or effect the other way; inactive means flat fitted curve, though single readings scatter; tested in HEK293 cells; note: % is set by controls: 0 for no effect and ±100 for the full control effect; nearly all actives have a fitted effect of over 50% in size; luciferase read-out
Marburg entry inh = Marburg virus entry inhibition. 300,000 compounds, 1.8% hits. Potency, µM (top dose mostly 37.8 µM), without a hit: at the top dose activity change, negative = inhibition, most hits filed as inhibitors. AID 540276. Marburg virus pseudotyped entry inhibition, cell reporter; control for the full effect not named in the record; about a third of the inactives were read at about 46 µM; active = well fitted inhibition curve with a large enough effect; inconclusive = small, poorly fitted or top-dose-only effect, or effect the other way; inactive = flat fitted curve, though single readings scatter; tested in HEK293 cells; about a fifth of its hits are not listed in these tables; note: % is set by controls: 0 for no effect and ±100 for the full control effect; luciferase read-out
Numbers without * were called inactive; ? = inconclusive; nt = not tested or not shown; & = joins results of further samples; [ ] = dose if it differs, or a comment. Unless noted, calls come from the whole dose curve; as a rule, active = well fitted curve in the direction sought with a large enough effect; inconclusive = small, poorly fitted or top-dose-only effect, or another doubt; inactive = no such curve, though single readings can be large; an effect the other way counts as inactive or inconclusive. Potency is the fitted concentration of half-maximal effect. Random draw from the library. About 4.7% of those tested had a hit in this group.

entry | canonical_smiles | NS1 function inh | RE007 growth inh | 2A StopGo | SARS PLP yeast | Cruzain Triton | Cruzain noTriton | Lassa entry inh | Marburg entry inh
1 | CCCSCCCNC(=O)C1CCCN(C(=O)c2cnn(-c3ccccc3)c2-n2cccc2)C1 (stereo not given) | nt | nt | -8% | nt | -3.0% | ? | -4%[46.1 µM] | 8%[46.1 µM]
2 | CCOC(=O)c1nnc(-c2ccc(C)cc2)nc1Sc1ccccc1Cl | 1% | 39% | ? | -4% | 3.6% | -1% | 0% | 1%
3 | CCC(=O)N(C)CCc1cc2c(c(OC)c1/C=N/NC(=O)c1ccccc1O)OCO2 | 19% | -4% | -22% | ? | -2.7% | 4% | -8% | 13%
4 | CN1CCN(CCCNC(=O)Cn2ncc3c4ccccc4n(C)c3c2=O)CC1 | -5% | -6% | -17% | 13% | -3.8% | -1% | nt | nt
5 | COc1ccc(C2c3cc(OC)c(OC)cc3CCN2C(=O)c2ccccc2)cc1OC (stereo not given) | 3% | 17% | -6% | ? | nt | nt | ? | -2%[46.1 µM]
6 | CCOC(=O)C1CCN(C(=O)CN(c2cc(OC)ccc2OC)S(=O)(=O)c2ccccc2)CC1 | -10% | 6% | -9% | -2% | -0.2% | ? | -22% | 13%&13%
7 | Cc1ccc(C)c(OCC(=O)O/N=C(\N)c2cccnc2)c1 | -38% | -6% | 17% | -1% | nt | nt | -15%[46.1 µM] | 2%[46.1 µM]
8 | Cc1ccc(C(C)C)c(OCCN(C)C)c1 | 3% | 7% | -6% | 15% | 8.5% | -4% | 21% | -16%
9 | COc1ccc(/C=C/C(=O)C2(O)CCCCC2)cc1OC | nt | -9% | -23% | 1% | nt | nt | ? | ?
10 | O=C(Nc1cccnc1Cl)c1cccc(S(=O)(=O)N2CCOCC2)c1 | 16% | 4% | -20% | -5% | nt | nt | 17%[46.1 µM] | 23%[46.1 µM]
11 | O=C(NCC1COc2ccccc2O1)c1cc2ccccc2o1 (stereo not given) | 7% | 14% | 41%[activator] | -11% | -6.8% | -14% | 20% | -1%
12 | C/C(CC(=O)Nc1cccc(C(F)(F)F)c1)=N\NC(=O)C1CCCCC1 | 2% | -11% | -12% | 0% | nt | nt | -1% | -10%[46.1 µM]
13 | COc1ccc(NC(=O)NCCN2C(=O)C3C4C=CC(C4)C3C2=O)cc1 (stereo not given) | 5% | 3% | 42%[activator] | -1% | 1.0% | 3% | 9% | ?
14 | CCc1csc(CCNC(=O)C2CCC(=O)N(Cc3ccccc3F)C2)n1 (stereo not given) | 10% | -10% | 6% | 2% | nt | nt | -4% | ?
15 | C=CCn1c(SCC(=O)N2CCCC2)nc2cc(C(=O)NCC3CCCO3)ccc2c1=O (stereo not given) | 5% | 7% | 19% | 4% | -3.3% | -22% | -2% | 10%

Part of the list above, with two lines to a compound.
Second line of a record: NS1 function inh, RE007 growth inh, 2A StopGo, SARS PLP yeast, Cruzain Triton, Cruzain noTriton, Lassa entry inh, Marburg entry inh
13: COc1ccc(NC(=O)NCCN2C(=O)C3C4C=CC(C4)C3C2=O)cc1 (stereo not given)
→ 5%, 3%, 42%[activator], -1%, 1.0%, 3%, 9%, ?
15: C=CCn1c(SCC(=O)N2CCCC2)nc2cc(C(=O)NCC3CCCO3)ccc2c1=O (stereo not given)
→ 5%, 7%, 19%, 4%, -3.3%, -22%, -2%, 10%
10: O=C(Nc1cccnc1Cl)c1cccc(S(=O)(=O)N2CCOCC2)c1
→ 16%, 4%, -20%, -5%, nt, nt, 17%[46.1 µM], 23%[46.1 µM]

Next section:
entry | canonical_smiles | NS1 function inh | RE007 growth inh | 2A StopGo | SARS PLP yeast | Cruzain Triton | Cruzain noTriton | Lassa entry inh | Marburg entry inh
16 | CC(=O)c1c(C)[nH]c(C(=O)Nc2cccc(C(F)(F)F)c2)c1C | -3% | 9% | 0% | -14% | nt | nt | 0% | ?
17 | COC(=O)c1ccc(Cn2nnc3c(=O)[nH]c(C4CCCN(S(=O)(=O)c5ccccc5Cl)C4)nc32)cc1 (stereo not given) | 19% | -5% | 17%&-17% | 5% | -2.3% | -6% | 1%[46.1 µM] | ?
18 | COCCNC(=O)c1ccccc1NC(=O)C1COc2ccccc2O1 (stereo not given) | -12% | -5% | -1% | -4% | 6.1% | 12% | -31% | -27%
19 | O=C(c1ccccc1)c1cn[nH]c1-c1ccccc1O | -3% | 0% | -12% | 4% | 3.1% | 1% | 26% | 22%
20 | CCOCC(=O)Nc1nnc(Cc2ccc(OC)c(OC)c2)s1 | -3% | -3% | -7% | 4% | 2.1% | -7% | ? | 17%
21 | CC(C)c1ccccc1NC1=CC(=O)CC(C)(C)C1 | 10% | 19% | 0% | -2% | -4.7% | -10% | 8% | ?
22 | CCN(CC)C(=O)N1CCN(S(=O)(=O)c2c(C)cc(C)cc2C)CC1 | 2% | 0% | ? | 1% | nt | nt | ? | ?
23 | COc1ccc(SC[C@H](Cc2ccccc2)N2CCN(CCc3ccccc3)CCC2=O)cc1 | -7% | -16% | -20% | -2% | nt | nt | nt | nt
24 | COc1ccccc1N1CCN(Cc2ccsc2)CC1 | 3% | -17% | 11% | 7% | 7.1% | 6% | ? | 0%
25 | C=CCN=C1N[C@@H](c2ccccc2)C(C(=O)OC)=C(C)N1CC | 5%&-8% | -23% | -12% | 2%&-1% | nt | nt | nt | nt
26 | CCc1ccc(C2C(C#N)=C(N)Oc3n[nH]c(CC(=O)OC)c32)cc1 (stereo not given) | 3% | -9% | -20% | 18% | -3.9% | 5% | -2% | -2%
27 | CC(C)C1N=C2c3ccccc3N=C(SCc3cc(=O)n4cc(Cl)ccc4n3)N2C1=O (stereo not given) | -7% | 3% | -16% | -12% | -7.3% | -13% | -18% | -5%[46.1 µM]
28 | O=c1c2c3nc4ccccc4nc3n(/N=C/c3ccncc3)c2ncn1-c1ccccc1 | -6% | 18% | 0% | 1% | nt | nt | nt | nt
29 | COc1ccc(S(=O)(=O)Nc2cc3c4c(c2)CCN4C(=O)CC3)cc1C | nt | 9% | 25% | 1% | nt | nt | -7% | -2%[46.1 µM]
30 | O=[N+]([O-])c1ccc2c(c1N1CCCCC1)=NC1(CCCCC1)[N+]=2[O-] | 5% | -27% | 0% | -1% | nt | nt | 7% | 6%[46.1 µM]

Complete entries, quoted from the list. Values in the order: NS1 function inh | RE007 growth inh | 2A StopGo | SARS PLP yeast | Cruzain Triton | Cruzain noTriton | Lassa entry inh | Marburg entry inh
`COc1ccccc1N1CCN(Cc2ccsc2)CC1` reads 3% | -17% | 11% | 7% | 7.1% | 6% | ? | 0%
`COc1ccc(S(=O)(=O)Nc2cc3c4c(c2)CCN4C(=O)CC3)cc1C` reads nt | 9% | 25% | 1% | nt | nt | -7% | -2%[46.1 µM]
`O=[N+]([O-])c1ccc2c(c1N1CCCCC1)=NC1(CCCCC1)[N+]=2[O-]` reads 5% | -27% | 0% | -1% | nt | nt | 7% | 6%[46.1 µM]
`CC(C)c1ccccc1NC1=CC(=O)CC(C)(C)C1` reads 10% | 19% | 0% | -2% | -4.7% | -10% | 8% | ?
`COc1ccc(SC[C@H](Cc2ccccc2)N2CCN(CCc3ccccc3)CCC2=O)cc1` reads -7% | -16% | -20% | -2% | nt | nt | nt | nt

Single entries from above.
Reading for entry 4 under SARS PLP yeast: 13%
Reading for entry 11 under RE007 growth inh: 14%
Reading for entry 7 under RE007 growth inh: -6%
Reading for entry 1 under 2A StopGo: -8%

Compound activity: PubChem BioAssay, National Center for Advancing Translational Sciences (NCATS)
